From PubChem BioAssay
Cruzain inh noDet: cruzain (T. cruzi) inhibition without detergent; purified cruzain, Z-FR-AMC fluorescence, no detergent; Potency, µM, for the others: max response, negative = inhibition, most hits filed as inhibitors; 200,000 tested, 2.3% active; AID 1476;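 also: plate controls were enzyme without inhibitor for no effect and buffer without enzyme for full effect; nearly all actives have a fitted effect of over 40% in size; top concentration of the series not given in the record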
Target sequence (P25779 123-467 limits assumed): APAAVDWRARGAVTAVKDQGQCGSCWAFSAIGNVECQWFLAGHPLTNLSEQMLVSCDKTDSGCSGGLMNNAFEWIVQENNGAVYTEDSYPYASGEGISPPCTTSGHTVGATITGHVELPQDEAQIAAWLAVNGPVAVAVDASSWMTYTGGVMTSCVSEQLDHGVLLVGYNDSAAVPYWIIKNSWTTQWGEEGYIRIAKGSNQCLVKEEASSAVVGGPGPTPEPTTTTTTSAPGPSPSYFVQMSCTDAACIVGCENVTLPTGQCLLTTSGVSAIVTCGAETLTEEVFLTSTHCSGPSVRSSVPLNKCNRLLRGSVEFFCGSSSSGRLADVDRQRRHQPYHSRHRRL
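Purified cruzain at 1.5 nM, pre-incubated 15 min with compound at room temperature in 100 mM sodium acetate pH 5.5, 5 mM DTT, 0.00005% Triton X-100. Reaction started with 2 uM Z-FR-AMC; AMC fluorescence increase over 60 s gives rate.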
MARV entry inh: inhibitors of Marburg virus binding or cell entry; Potency, µM (series often up to 37.8 µM), inactives show at the top dose activity change, negative = inhibition, most hits filed as inhibitors; Marburg virus pseudotyped entry inhibition, cell reporter; control for the full effect not named in the record; about a third of the inactives were read at about 46 µM; 300,000 tested, 1.8% active; AID 540276; active = well fitted inhibition curve with a large enough effect; inconclusive = small, poorly fitted or top-dose-only effect, or effect the other way; inactive = flat fitted curve, though single readings scatter; tested in HEK293 cells; about a fifth of its hits are not listed in these tables; also: % is scaled to controls: 0 for no effect and ±100 for the full control effect; luciferase read-out
SARS PLP yeast: blocks SARS-CoV papain-like protease in a yeast assay; S. cerevisiae expressing SARS-CoV PLpro, growth rescue; control for the full effect not named in the record; Potency, µM (top dose mostly 32.9 µM), for the others: at the highest dose activity, positive = growth rescue; 330,000 tested, 0.19% active; AID 485353; active means well fitted rising curve with a large enough effect; inconclusive means small, poorly fitted or top-dose-only effect; inactive means no such curve, though single readings can be large or run the other way; also: 0% is about no effect; nearly all actives have a fitted effect of over 55% in size; growth read by luminescence after 48 h
RE007 growth inh: less growth of the S. pombe RE007 Vpr strain; 360,000 tested, 0.21% active; AID 651644; S. pombe RE007 Vpr strain, BacTiter-Glo ATP luminescence, 24 h; control for the full effect not named in the record; Potency, µM (top dose mostly 92.2 µM), for inactives: at the top dose activity change, negative = less growth; active = well fitted falling curve with a large enough effect; inconclusive = small, poorly fitted or top-dose-only effect; inactive = no such curve, though single readings can be large or run the other way;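 also: % is scaled to controls: 0 for no effect and ±100 for the full control effect; nearly all actives have a fitted effect of over 50% in size; the assay follows cell death caused by Vpr and the record does not say whether a fall means rescue or toxicity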
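Fission yeast strain RE007, carrying one chromosomally integrated HIV-1 vpr copy, was seeded at OD 0.01 in PMG+AL medium with 23 nL pinned compound. After 24 h at 30 °C and 99% humidity, viability was read by BacTiter-Glo luminescence.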
NS1 inh: influenza NS1 inhibition. S. cerevisiae slowed by influenza A NS1, growth recovery by OD600. Potency, µM (titrated, usually from 46.1 µM), without a hit: at the top dose activity, positive = more growth. AID 2326. 270,000 tested, 0.4% active; active means well fitted rising curve with a large enough effect; inconclusive means small, poorly fitted or top-dose-only effect; inactive means no such curve, though single readings can be large or run the other way; also: nearly all actives have a fitted effect of over 50% in size
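Read-out: OD600 growth recovery of NS1-expressing budding yeast. Cells grown overnight at 30C in -URA glucose medium, washed, resuspended and diluted 1:100 in 2% galactose assay medium, pH 6.0. Same strain lacking NS1 served as positive control.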
StopGo reporter: FMDV 2A StopGo reporter, luciferase signal; human cells with a luciferase reporter of 2A StopGo recoding; control for the full effect not named in the record; Potency, µM (titrated, usually from 57.9 µM), inactives show at the top dose signal change, negative = less light; 410,000 tested, 1.2% active; AID 1159524; active = well fitted falling curve with a large enough effect; inconclusive = small, poorly fitted or top-dose-only effect; inactive = no such curve, though single readings can be large or run the other way; tested in HEK293T cells; also: % is scaled to controls: 0 for no effect and ±100 for the full control effect; nearly all actives have a fitted effect of over 45% in size; luciferase light after 4 h
Cruzain inh Det: blocks cruzain activity in presence of Triton detergent; purified cruzain, Z-FR-AMC fluorescence, 0.01% Triton; AID 1478; 200,000 tested, 0.43% active; Potency, µM, inactives show max response, negative = inhibition, actives largely listed as inhibitors;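 also: plate controls were neutral wells for no effect and buffer without enzyme for full effect; nearly all actives have a fitted effect of over 40% in size; top concentration of the series not given in the record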
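Read-out: AMC fluorescence (360 nm excitation, 450 nm emission), four reads over 2 min, first-to-third difference used. Conditions: cruzain 1.5 nM, Z-FR-AMC 2 uM, pH 5.5 acetate, 5 mM DTT, 0.01% Triton X-100.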
Lassa entry inh: blocks Lassa virus binding to or entry into cells | Lassa virus pseudotype entry inhibition, cell reporter; control for the full effect not named in the record | Potency, µM (titrated, usually from 37.9 µM), for the others: at the highest dose activity change, negative = inhibition, usual class: inhibitors | 300,000 tested, 1.2% active; active means well fitted inhibition curve with a large enough effect; inconclusive means small, poorly fitted or top-dose-only effect, or effect the other way; inactive means flat fitted curve, though single readings scatter; tested in HEK293 cells; also: % is scaled to controls: 0 for no effect and ±100 for the full control effect; nearly all actives have a fitted effect of over 50% in size; luciferase read-out
The depositor's hits bear a star; ? = inconclusive; . = no result given; & = joins results of further samples; [ ] = another dose, or the depositor's remark. Unless noted, calls follow the shape of the dose curve; as a rule, active = well fitted curve in the direction sought with a large enough effect; inconclusive = small, poorly fitted or top-dose-only effect, or another doubt; inactive = no such curve, though single readings can be large; an effect the other way counts as inactive or inconclusive. Potency is read from the fitted curve at half-maximal effect. Not a hit list, and some 4.8% of all compounds hit somewhere here.

SMILES	Cruzain inh noDet	MARV entry inh	SARS PLP yeast	RE007 growth inh	NS1 inh	StopGo reporter	Cruzain inh Det	Lassa entry inh
Cc1cc(NC(=O)c2nn(C)c(C)c2[N+](=O)[O-])no1	-4%	-3%	-5%	2%	15%	-6%	-0.9%	4%
COc1ccc(C(=O)N2CCC(C(=O)Nc3ccc(C)cc3)CC2)cc1	.	-7%	0%	2%	.	5%	.	-11%
CC(C)Oc1ccc(CNCC2(O)CCOC(C)(C)C2)cc1 (stereo not given)	-11%	7%	-15%	-10%	1%	1%	1.8%	12%
Cc1ccc(NC(=O)c2ccccc2-c2ccc(C(F)(F)F)cc2)cc1S(=O)(=O)N1CCOCC1	10%	?	-4%	-4%	-5%	30%[activator]	-6.3%	?
CSc1nc2sc3c(c2c(=O)n1-c1ccccc1)CCC(C(C)(C)C)C3 (stereo not given)	3%	-2%[46.1 µM]	.	.	.	-11%	-0.9%	11%[46.1 µM]
CCC(=O)Nc1ccc(C(=O)Nc2ccc(OC)cc2[N+](=O)[O-])cc1	19%	26%	26%	19%	0%	-11%	1.2%	6%
COc1ccc(NC(=O)c2ccc(C)o2)c([N+](=O)[O-])c1	-13%	1%	13%	8%	3%	36%[activator]	-2.6%	6%
CCOc1ccc(C(=O)O)cn1	.	.	-3%	0%	0%	-17%	.	.
O=C(c1ccc2c3n(nc2c1)-c1ccc(Cl)cc1CO3)N1CCCCC1	.	.	-19%	-16%	-76%	71%[activator]	.	.
O=C(c1[nH]nc2c1CCc1ccccc1-2)N1CCN(Cc2ccc3c(c2)OCO3)CC1	.	?	2%	-2%	2%	?	.	?
COc1cccc(NC(=O)CCNC(=O)N2CC(=O)Nc3ccccc32)c1	.	.	3%	-1%	-14%	-20%	.	.
Cc1nc2ccn(Cc3ccccc3)c(=O)c2cc1C(=O)N1CCN(c2ccccc2)CC1	.	17%[46.1 µM]	-9%	6%	6%	-5%	.	-7%[46.1 µM]

The final five records of the section above lead into the next:
SMILES	Cruzain inh noDet	MARV entry inh	SARS PLP yeast	RE007 growth inh	NS1 inh	StopGo reporter	Cruzain inh Det	Lassa entry inh
CCOc1ccc(C(=O)O)cn1	.	.	-3%	0%	0%	-17%	.	.
O=C(c1ccc2c3n(nc2c1)-c1ccc(Cl)cc1CO3)N1CCCCC1	.	.	-19%	-16%	-76%	71%[activator]	.	.
O=C(c1[nH]nc2c1CCc1ccccc1-2)N1CCN(Cc2ccc3c(c2)OCO3)CC1	.	?	2%	-2%	2%	?	.	?
COc1cccc(NC(=O)CCNC(=O)N2CC(=O)Nc3ccccc32)c1	.	.	3%	-1%	-14%	-20%	.	.
Cc1nc2ccn(Cc3ccccc3)c(=O)c2cc1C(=O)N1CCN(c2ccccc2)CC1	.	17%[46.1 µM]	-9%	6%	6%	-5%	.	-7%[46.1 µM]
O=C(Cn1nnc(-c2ccccc2NC(=O)c2ccco2)n1)Nc1ccccc1	-3%	-24%	2%	11%	-3%	-16%	-2.6%	?
CC(C)c1ccc(NC(=O)NC2(C(=O)NCc3cccnc3)CCCCC2)cc1	.	24%[46.1 µM]	-3%	-7%	-13%	-13%	.	14%
Cc1cccc(-n2cc(CN3CCN(c4ccccn4)CC3)c(-c3cccc(F)c3)n2)c1	.	.	-2%	-15%	1%	12%	.	.
O=C(O)C1C2CCC(O2)C1C(=O)Nc1cnn(Cc2ccccc2)c1 (stereo not given)	-4%	7%	4%	-10%	-10%	20%	5.4%	2%
O=C1N/C(=C/c2cccn2-c2ccccc2)C(=O)N1Cc1ccc(F)cc1	13µM*	?	0%	11%	5%	-8%	-4.7%	?
CN1C(=O)/C(=C\c2cc(Br)cs2)c2ccccc21	.	?	-1%	-16%	.	35%[activator]	.	5%[46.1 µM]
CCN1C(=O)c2ccccc2Sc2ccc(C(=O)N3CCC4(CC3)OCCO4)cc21	27%	.	4%	-16%	-51%	-22%	2.6%	.
CC1(C)OC(c2ccccc2)=C/C(=C\C=N\NC(=O)c2ccncc2)O1	.	-27%[46.1 µM]	0%	1%	-1%	-20%	.	-7%
CC1CC1c1ccc(/C=C(\C#N)C(=O)Nc2cc(Cl)ccc2Cl)o1 (stereo not given)	0%	?	-21%	3%	0%	-4%	-4.8%	3%
Cc1cccc(OCC(=O)NCC(=O)N/N=C/c2ccc(O)cc2O)c1	.	.	7%	-10%	-3%	-11%	.	.
N#Cc1c(N)n(CCOC(=O)c2cccc(Br)c2)c2nc3ccccc3nc12	-15%	-8%&-8%&-8%	.	7%	17%	-12%	-1.9%	6%
COc1cc(OC)cc(C(=O)Nc2ccc(S(=O)(=O)Nc3onc(C)c3C)cc2)c1	-10%	10%[46.1 µM]	.	.	.	-9%	-3.2%	-6%[46.1 µM]
COc1ccc(C(=O)Nc2cc(=O)n(C)c(=O)n2C)cc1OC	-14%	.	-25%	-10%	-3%	-5%	-4.3%	.
CCOC(=O)C1CCCN(C(=O)C2CCN(S(=O)(=O)c3c(C)noc3/C=C/c3ccc(C)cc3)CC2)C1 (stereo not given)	?	.	.	.	.	0%	-6.6%	?
COc1ccc(-n2c(=O)c3sc4ccccc4c3n(C)c2=O)cc1	-4%	2%[46.1 µM]	.	.	.	-7%	-0.4%	18%[46.1 µM]
CCCN(CCC)CCCNC(=O)c1cn(CC)c2ccc(S(=O)(=O)N3CCOCC3)cc2c1=O	.	.	2%	-10%	0%	-9%	.	.
O=C(NC(=S)Nc1cccc(C(F)(F)F)c1)c1ccc2nonc2c1	.	?	-3%	?	-5%	-30%	.	?
CN1CCN(c2ccc(NC(=O)N3CCc4ccccc43)cc2)CC1	.	?	1%	-9%	5%	18µM*	.	-31%[46.1 µM]
CCC(C)(C)NC(=O)C1c2ccccc2Oc2ccccc21	.	0%[46.1 µM]	-1%	0%	.	-13%	.	18%
O=C(NCc1ccncc1)c1ccc(Br)cc1	-5%	0%	5%	11%	7%	14%	0.0%	15%
CC(C)CS(=O)(=O)c1oc(-c2ccc(F)cc2)nc1S(=O)(=O)c1ccccc1	7%	?	.	.	.	25µM*	-5.6%	?
C[C@@H]1O[C@H](C[N+](C)(C)C)C[C@H]1O	-6%	?	.	.	-5%	.	3.7%	15%
O=c1n(Cc2ccc(Cl)cc2)c2sc3c(c2c2ncnn12)CCCC3	25µM*	-22%[46.1 µM]	-10%	44%	-44%	?	-13%	?
CCCCOc1ccc(Br)cc1/C(C)=N/NC1=NCCN1	-25%	10µM*	-41%	-21%	-22%	14µM*	-15%	11µM*
O=S(=O)(c1ccc2nc(Cc3cccc(C(F)(F)F)c3)[nH]c2c1)N1CCOCC1	4%	-6%&-14%	7%	12%	0%	.	0.2%	0%
Cc1sc(-n2c(C)cc(C=O)c2C)c(C(=O)O)c1C	3%	-4%	19%	16%	8%	0%	2.8%	-12%
COc1ccc(NC(=O)COC(=O)c2c3c(nc4ccccc24)CCCC3)cc1	-2%	?	0%	13%	-29%	22µM*	-8.1%	?
O=C(Nc1cc(S(=O)(=O)N2CCOCC2)ccc1N1CCOCC1)c1cnccn1	1%	1%	0%	-5%	2%	-11%	-1.4%	-1%
O=C(O)c1ccc(N/N=C/c2cn(Cc3ccc(F)cc3)c3ccccc23)cc1	.	1%	-2%	1%	10%	?	.	.
C/C(=C\C(=O)O)C(=O)Nc1nccs1	5%	-3%	-3%	-3%	7%	-8%	5.8%	0%
CCOc1ccc(OCC)c(NS(=O)(=O)c2cc(-c3cc(C)no3)ccc2C)c1	?	.	.	.	.	-13%	-2.5%	?
COCCCNC(=O)CCc1c(C)nc2c(c(C)nn2-c2ccccc2)c1C	.	.	-3%	-8%	-6%	0%	.	.
CC1(C)COC(c2ccc(F)c([N+](=O)[O-])c2)=N1	-2%	?	18%	-4%	9%	?	-3.1%	-20%
N/C(=N/[N+](=O)[O-])N1CCN(C(=O)Oc2ccc([N+](=O)[O-])cc2)CC1	.	.	0%	-5%	4%	-11%	.	.
CCOc1cc(/C=C2/C(=O)ON=C2C)ccc1O	.	.	2%	-3%	4%	-23%	.	.
CN(C)P1(N(C)C)=NC(C(F)(F)F)=NC(C(F)(F)F)=N1	6%	12%	21%	-1%	-1%	10%	2.4%	19%
NC(Cc1cccc2nsnc12)C(=O)O (stereo not given)	-1%	6%	2%	2%	-4%	-27%	-0.2%	14%
Cc1ccc([C@@H]2[C@@H]3C(=O)N(C)C(=O)[C@@H]3[C@]3(C)C(=O)N(Cc4ccccn4)CC(=O)N23)o1	.	.	-3%	3%	21%	-1%	.	.
O=C(Nc1cccc(C(F)(F)F)c1)c1ccco1	4%	3%	-21%	?	-121%	12%	0.8%	-34%
COC(=O)c1ccc(NC(=O)c2cc3cc4ccc(OC)c(Cl)c4nc3s2)cc1	-2%	.	.	.	.	57%[activator]	-0.4%	13%[46.1 µM]
CN(C)c1ccc(CN(C(=O)c2cccs2)C2CCS(=O)(=O)C2)cc1 (stereo not given)	.	?	-4%	4%	-3%	-13%	.	5%
Cc1cc(C)n(-c2ncnc3sc4c(c23)CC(C)CC4)n1 (stereo not given)	2%	?	2%	-1%	-16%	8%	-3.1%	15%
CC(=O)N1CCOc2ccc(S(=O)(=O)NCc3ccc(Cl)cc3)cc21	.	0%[46.1 µM]	0%	0%	13%	49%[activator]	.	?
CCc1ccccc1NC(=O)CSc1ncc2c(n1)-c1cc(Cl)ccc1N(Cc1ccccc1)S2(=O)=O	-24%	.	.	.	.	-2%	-1.1%	16%[46.1 µM]
Cc1ccc(S(=O)(=O)CCC(=O)Nc2cccc(Cl)c2)cc1	.	.	0%	2%	-3%	-10%	.	.
